Screening data from PubChem BioAssay.
TRPML1 agonist: qHTS for Agonists of the Human Mucolipin Transient Receptor Potential 1 (TRPML1); activation, % (test concentration not listed); Mucolipin-1 (Homo sapiens), Q9GZU1; 410,000 compounds, 0.12% hits; TRPML1-expressing cells, Ca2+ dye fluorescence, FDSS; host cell line not named in the record; reference of the full effect not given here; AID 624414, 2012; in the data active = activation above about 50%; inconclusive = about 30% to 50%; inactive = below about 30%; also: 0% is about no effect; the text of the record puts the active cut at 80%
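Agonist activity was taken from a 110 s kinetic Ca2+ dye read on the FDSS after pinning compounds onto TRPML1-DL cells. The cells were seeded at 1,500/well with Tet inducer, incubated about 16 h, then dye-loaded at room temperature.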
CtBP-E1A blk: qHTS Assay for Inhibitors of the CtBP/E1A Interaction; AlphaScreen GST-E1A/His-CtBP binding, 1536-well; stronger effect = lower value; control for the full effect not named in the record; activity change, % (concentration not given with the values); 340,000 compounds, 0.49% hits; AID 651724, 2012; in the data active means activity change below about -65%; inconclusive means about -30% to -65%; inactive means above about -30%; also: % is scaled to controls: 0 for no effect and ±100 for the full control effect
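Homogeneous bead-based format: GST-tagged E1A captured on glutathione donor beads, His-tagged CtBP on nickel acceptor beads; compounds precede bead addition by 2 h at 37 °C.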
TRPV1 potentiator: HTS Assay for Compounds that Act as Potentiators of the Vanilloid Receptor 1; Transient receptor potential cation channel subfamily V member 1 (Homo sapiens), Q8NER1; TRPV1-expressing cells, Fluo-8 calcium influx, capsaicin EC20 potentiation; host cell line not named in the record; control for the full effect not named in the record; potentiation, % at 8.33 µM; 320,000 compounds, 0.02% hits; AID 540277, 2011; active means potentiation above 80%; inconclusive means 30% to 80%; inactive means below 30%; also: 0% is about no effect
Target sequence (Q8NER1 whole entry, looked up): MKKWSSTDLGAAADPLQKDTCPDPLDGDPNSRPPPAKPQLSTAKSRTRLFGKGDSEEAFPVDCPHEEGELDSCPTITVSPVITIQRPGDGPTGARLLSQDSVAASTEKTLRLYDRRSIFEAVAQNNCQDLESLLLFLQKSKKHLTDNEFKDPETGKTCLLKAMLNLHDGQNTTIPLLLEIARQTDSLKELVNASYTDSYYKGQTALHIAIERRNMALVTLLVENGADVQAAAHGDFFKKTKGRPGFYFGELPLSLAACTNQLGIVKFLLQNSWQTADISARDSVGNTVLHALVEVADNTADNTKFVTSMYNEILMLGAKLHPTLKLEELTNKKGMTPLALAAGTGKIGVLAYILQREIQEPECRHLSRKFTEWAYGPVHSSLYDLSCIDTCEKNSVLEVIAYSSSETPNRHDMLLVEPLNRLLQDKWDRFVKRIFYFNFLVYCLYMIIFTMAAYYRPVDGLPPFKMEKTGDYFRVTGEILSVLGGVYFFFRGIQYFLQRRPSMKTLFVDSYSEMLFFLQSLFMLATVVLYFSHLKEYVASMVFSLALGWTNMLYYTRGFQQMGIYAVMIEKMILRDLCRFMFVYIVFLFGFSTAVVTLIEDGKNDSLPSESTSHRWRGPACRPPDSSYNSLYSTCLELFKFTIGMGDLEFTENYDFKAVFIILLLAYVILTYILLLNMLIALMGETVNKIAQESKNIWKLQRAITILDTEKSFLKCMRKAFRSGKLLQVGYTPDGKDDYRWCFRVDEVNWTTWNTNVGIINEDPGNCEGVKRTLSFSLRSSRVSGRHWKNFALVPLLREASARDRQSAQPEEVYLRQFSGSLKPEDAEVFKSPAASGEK
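TRPV1-expressing cells were cultured overnight at 35.5C and loaded with Fluo-8 calcium dye for 40 to 90 min at room temperature. After a 10 s baseline, compound was added and calcium influx was read kinetically for 3 min (ex 480/em 520 nm).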
D2 potentiator: Beta-Arrestin HTS for Positive Allosteric Modulators of the Human D2 Dopamine Receptor: Potentiators | 360,000 compounds, 0.23% hits | D(2) dopamine receptor (Homo sapiens), P14416 | DiscoveRx D2 beta-arrestin cells, luminescence, 90 min; 100% = 57 uM dopamine signal | AID 624464, 2012 | potentiation, % (test concentration not listed); active = potentiation of 50% or more; inconclusive = 30% to 50%; inactive = 30% or less;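 also: compound concentration not given in the record; tested on top of an EC20 dose of dopamine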
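PathHunter D2 cells, attached overnight at 37 deg C, received compound in DMSO plus dopamine at EC20 (50 nM final) for 90 min at 37 deg C. Beta-arrestin recruitment was read as luminescence after 1 h with detection reagent at ambient temperature.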
TRPML1 inh: qHTS for Inhibitors of the Human Mucolipin Transient Receptor Potential 1 (TRPML1); activity change, negative = inhibition, % (test concentration not listed); 390,000 compounds, 0.02% hits; TRPML1-inducible cells, Ca2+ dye fluorescence, FDSS; stronger effect = lower value; inhibition of EC80 agonist-evoked calcium signal; Mucolipin-1 (Homo sapiens), Q9GZU1; in the data active means activity change below about -50%; inconclusive means about -30% to -50%; inactive means above about -30%;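 also: stimulus is agonist 54-4 at its EC80 concentration; % is scaled to controls: 0 for no effect and ±100 for the full control effect; compound concentration not given in the record; the text of the record puts the active cut at -80%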
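Calcium fluorescence in TRPML1-DL cells induced overnight with Tet: a 110 s read after compound pin addition, then a 110 s antagonist read after challenge with 54-4 at 4 uM final (EC80).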
Six1-Eya2 inh: qHTS Assay for Inhibitors of the Six1/Eya2 Interaction; Homeobox protein SIX1 (Homo sapiens) + Protein phosphatase EYA2 (Homo sapiens), …; AlphaScreen GST-Six1/His-Eya2 binding, biochemical; stronger effect = lower value; control for the full effect not named in the record; activity change, % (no concentration beside the values); 360,000 compounds, 0.56% hits; in the data active = activity change below about -65%; inconclusive = about -30% to -65%; inactive = above about -30%; also: % is scaled to controls: 0 for no effect and ±100 for the full control effect
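Compounds are tested against tagged Six1 and Eya2 proteins bridged by glutathione donor and nickel acceptor beads; after a one-hour incubation at 37 °C without light, AlphaScreen emission is recorded.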
Starred values were filed as active, the others as inactive; ? = inconclusive; · = not tested or not shown; & = joins results of further samples.

SMILES	TRPML1 agonist	CtBP-E1A blk	TRPV1 potentiator	D2 potentiator	TRPML1 inh	Six1-Eya2 inh
Cc1ccccc1NC(=O)CSC(=O)c1ccccc1	2.6	-6	·	-9	-3	0
CC(Sc1nnc2ccccn12)C(N)=O (stereo not drawn)	-0.5	3	-6	-4	3	5
C=C1C[C@H]2[C@@H]3C=C(C)C4=CC(=O)CC[C@]4(C)[C@H]3CC[C@]2(C)[C@@]1(OC(C)=O)C(C)=O	-0.6	0	-13	-5	35	-1
Cc1cccc(NS(=O)(=O)c2ccc(C)c(C(=O)NCCCN3CCOCC3)c2)c1	-0.1	-18	-9	-2	-3	-3
Cn1cccc1C(C#N)c1ccccc1C#N (stereo not drawn)	0.6	-4	-4	2	-9	-8
Cc1cc(OCC(=O)NCc2ccncc2)c2c(C)cc(=O)oc2c1	0.2	-8	1	-2	0	-3
O=C(Nc1ccc(F)cc1)c1nc(S(=O)(=O)Cc2ccccc2)ncc1Cl	0.5	-21	5	-58	4	-9
O=C(NCc1ccncc1)C1CCN(S(=O)(=O)c2ccc(F)cc2)CC1	-0.7	-10	-14	-6	14	0
COc1cccc(CNC(=O)c2ccc(NC(=O)CC3SC(N4CCCCC4)=NC3=O)cc2)c1 (stereo not drawn)	2.1	-12	-3	-3	-6	3
O=C(Nc1ccc(F)cc1)c1ccc(CSc2ccc(Cl)cc2)o1	2.6	3	-7	-7	21	9
O=C(CCCN1CCN(c2ccccc2)CC1)c1ccc(F)cc1	-0.6	2	·	-22	-2	21
CC(NC(=O)c1ccco1)C(=O)OCC(=O)c1ccc(Cl)s1 (stereo not drawn)	-0.4	2	9	-5	0	8

The final 2 records of the part before lead into the next:
SMILES	TRPML1 agonist	CtBP-E1A blk	TRPV1 potentiator	D2 potentiator	TRPML1 inh	Six1-Eya2 inh
O=C(CCCN1CCN(c2ccccc2)CC1)c1ccc(F)cc1	-0.6	2	·	-22	-2	21
CC(NC(=O)c1ccco1)C(=O)OCC(=O)c1ccc(Cl)s1 (stereo not drawn)	-0.4	2	9	-5	0	8
Cc1ccc(C(=O)NCCC2=CCCCC2)cc1S(=O)(=O)N1CCCCC1	-0.3	-15	7	-27	-12	5
O=c1nc(-c2ccccc2)cn[nH]1	0.7	3	-12	-2	13	3
CC(=O)OCCCNc1cc(Sc2ccc(Cl)cc2)c2nonc2c1[N+](=O)[O-]	2.2	6	-1	-12	9	4
NS(=O)(=O)Nc1c(Br)cc(Br)c2cccnc12	2.0	·	-6	·	-9	·
Cc1ccc(NC(=O)c2ccc(Nc3ccccc3F)nc2)cc1	1.5	4	-9	-6	-9	6
N#Cc1c(-c2cccs2)nc(SCC(=O)c2cccs2)[nH]c1=O	1.4	-5	6	-17	-11	-8
O=C(Nc1ccccc1)Nc1cnccn1	-0.2	-1	-10	-7	1	0
Fc1cccc(Cl)c1CSc1nnc2ccccn12	-0.8	-15	-16	-5	8	-2
Cc1ccccc1OCC(=O)OCC(=O)Nc1ncc(Cl)c(C)c1Cl	1.1	1	-4	-4	-11	-10
COc1ccc(CCNC(=O)C23CCC(C)(C(=O)O2)C3(C)C)cc1OC (stereo not drawn)	-0.8	·	9	-13	8	2
Clc1ccccc1OCc1nn2c(-c3ccncc3)nnc2s1	-0.2	-5	-14	-5	2	-3
O=C(OCc1cc2ccccc2[nH]c1=O)c1ccccn1	-0.4	3	-3	-4	25	-4

A different layout for some results above:
SMILES | TRPML1 agonist | CtBP-E1A blk | TRPV1 potentiator | D2 potentiator | TRPML1 inh | Six1-Eya2 inh
Fc1cccc(Cl)c1CSc1nnc2ccccn12 | -0.8 | -15 | -16 | -5 | 8 | -2
Cc1ccccc1OCC(=O)OCC(=O)Nc1ncc(Cl)c(C)c1Cl | 1.1 | 1 | -4 | -4 | -11 | -10
COc1ccc(CCNC(=O)C23CCC(C)(C(=O)O2)C3(C)C)cc1OC (stereo not drawn) | -0.8 | · | 9 | -13 | 8 | 2

Complete entries from above.
Entry for CC(=O)OCCCNc1cc(Sc2ccc(Cl)cc2)c2nonc2c1[N+](=O)[O-] → TRPML1 agonist: 2.2; CtBP-E1A blk: 6; TRPV1 potentiator: -1; D2 potentiator: -12; TRPML1 inh: 9; Six1-Eya2 inh: 4
Entry for COc1cccc(CNC(=O)c2ccc(NC(=O)CC3SC(N4CCCCC4)=NC3=O)cc2)c1 (stereo not drawn) → TRPML1 agonist: 2.1; CtBP-E1A blk: -12; TRPV1 potentiator: -3; D2 potentiator: -3; TRPML1 inh: -6; Six1-Eya2 inh: 3
Entry for O=C(NCc1ccncc1)C1CCN(S(=O)(=O)c2ccc(F)cc2)CC1 → TRPML1 agonist: -0.7; CtBP-E1A blk: -10; TRPV1 potentiator: -14; D2 potentiator: -6; TRPML1 inh: 14; Six1-Eya2 inh: 0

More structures follow.
SMILES	TRPML1 agonist	CtBP-E1A blk	TRPV1 potentiator	D2 potentiator	TRPML1 inh	Six1-Eya2 inh
COc1ccccc1CC(=O)N1CCN(S(=O)(=O)c2ccccc2F)CC1	-0.5	2	·	1	-4	2
COc1cc([N+](=O)[O-])ccc1NC(=O)CCN1C(=O)C2C3CCC(C3)C2C1=O (stereo not drawn)	-0.1	0	-6	-21	-3	1
O=S1(=O)CC(N2CCCCC2)CN1Cc1cn(Cc2ccc(C(F)(F)F)cc2)nn1 (stereo not drawn)	-0.1	0	·	·	·	1
CC(=O)c1csc(COc2ccccc2)n1	1.0	1	19	-3	-16	2
Cc1ccc(-c2nc3cc(N)ccc3o2)c(C)c1	-0.7&-0.8	8	1	1	2	1
COC(=O)COC(=O)CC(CC(N)=O)c1ccccc1 (stereo not drawn)	-0.4	1	-4	-2	-17	0
Cc1ccc(NC(=O)COC(=O)c2ccccc2Cl)cc1S(=O)(=O)N(C)C	0.1	8	-6	-2	3	1
Cc1ccc(C(=O)OCC(=O)NC2CCCCC2)s1	0.3	4	7	-5	-17	2
CCN(CC(=O)Nc1ccc2c(c1)OCO2)Cc1nc2ccccc2c(=O)[nH]1	1.4	-12	8	-14	10	-11
Cc1nc2cc(C(=O)N3c4ccccc4CC3C)ccc2s1 (stereo not drawn)	2.2	14	1	0	-6	-3
NC(=O)C1CCCNC1 (stereo not drawn)	-0.4	4	-18	1	24	0
CN(CC(=O)Nc1ccc(Cl)c(C(F)(F)F)c1)C(=O)c1ccc(S(=O)(=O)N2CCOCC2)cc1	-0.4	-10	·	2	20	-8
O=C1C(C2=NC(C(=O)O)C3C(=O)N(c4ccccc4)C(=O)C23)=C(O)c2ccccc21 (stereo not drawn)	0.1	-1	-13	1	0	12
O=C(NCc1ccc2c(c1)OCO2)C1CCN(c2ccc(S(=O)(=O)N3CCCC3)cc2)CC1	-0.4	-15	12	-11	1	0
CCOc1ccc(Oc2nc(NCC(C)C)nc(OC)n2)nn1	-0.1	2	0	1	55	1
COc1cccc(CN(C)C(=O)c2cccc(S(=O)(=O)N3CCN(Cc4ccccc4)CC3)c2)c1OC	-0.7	-3	-22	-12	-7	-12
COc1ccc(CNC(=O)c2ccc(Cn3cc(Cl)cn3)o2)cc1	-0.6	1	-16	-4	-11	9
O=C(NC1CCCCC1)N1CCc2[nH]c3ccccc3c2C1	-0.9	-2	-12	-7	-6	-7
CC(C)(C)OC(=O)N1CCC[C@@H]1C(=O)NCc1ccccc1Cl	-0.6	-20	·	·	·	9
CC(=O)c1ccc(NC(=O)C(C)OC(=O)CCN=C2NS(=O)(=O)c3ccccc32)cc1 (stereo not drawn)	0.4	-1	0	-14	35	-1
O=C(Nc1ccc(C(F)(F)F)cc1)C1CC(=O)N(c2ccc3c(c2)OCCO3)C1 (stereo not drawn)	0.1	4	-5	-5	-4	4
O=c1c(Cl)c(N2CCN(c3ccc(F)cc3)CC2)cnn1-c1nc2ccccc2s1	0.5	5	3	13	9	1
Cc1ccc(C(C)C)cc2c(C)ccc1-2	-0.5	-22	·	-15	-14	?
CC(C)(C)N1C(=O)c2c(C(=O)OCc3ccccc3)[nH]c(-c3ccccc3)c2C1=O	-0.1	8	·	-2	·	12
C/C(CC1CC(COCCC(C)C)OC1=O)=N\NC(N)=S (stereo not drawn)	-0.7	8	25	2	-8	4
COc1ccc(S(=O)(=O)N2CCc3ccccc32)cc1C(=O)N1CCC(C)CC1	0.1	6	·	-5	-4	0
COc1cccc(C(=O)COc2cccc(NC(=O)c3cccc([N+](=O)[O-])c3)c2)c1	0.5	-8	2	-4	23	-12
Cc1cccc(NC(=O)c2ccco2)c1C(=O)O	2.0	8	4	0	-14	-5
C=CCN(Cc1ccc(Br)s1)C(=O)c1ccc(OCc2c(C)noc2C)cc1	1.0	1	·	-13	3	1
COc1ccccc1NS(=O)(=O)c1cccc(NS(=O)(=O)c2cc(C(=O)O)ccc2Cl)c1	-0.6	-3	·	-15	3	2
CC1CCN(c2ccc(C(=O)N3CCOCC3)cc2[N+](=O)[O-])CC1	-0.9	9	·	-5	2	-8
COc1cccc(/C=C2/SC(=S)N(CCC(=O)N3CCOCC3)C2=O)c1	-0.5	15	?	-5	4	-9
C/C(=N\NC(=O)c1c(Cl)c(C)nn1C)c1cccc(NC(=O)C2CCCC2)c1	1.2	0	-12	-3	-14	1
CC1(c2ccccc2Cl)NC(=O)N(CC(=O)Nc2cccnc2Cl)C1=O (stereo not drawn)	-0.7	2	-1	-18	-2	2
Nc1ccc2c(c1)ncn2CCCn1cnc2cc(N)ccc21	0.5	4	5	0	0	-9
CC(=O)OCC(=O)C1(O)CCC2C3CCC4=CC(=O)C=CC4(C)C3C(O)CC21C (stereo not drawn)	0.3	8	-8	-6	4	7

Structural class, the compounds so far with a tert-butyl group
SMILES	TRPML1 agonist	CtBP-E1A blk	TRPV1 potentiator	D2 potentiator	TRPML1 inh	Six1-Eya2 inh
CC(C)(C)OC(=O)N1CCC[C@@H]1C(=O)NCc1ccccc1Cl	-0.6	-20	·	·	·	9
CC(C)(C)N1C(=O)c2c(C(=O)OCc3ccccc3)[nH]c(-c3ccccc3)c2C1=O	-0.1	8	·	-2	·	12

The listing continues.
SMILES	TRPML1 agonist	CtBP-E1A blk	TRPV1 potentiator	D2 potentiator	TRPML1 inh	Six1-Eya2 inh
Cc1ccc(C(=O)NCC2CCCO2)cc1N1CCCC1=O (stereo not drawn)	-0.6	4	20	-2	2	4
COc1ccc(Cl)cc1C(=O)NC(C)C	-0.3	8	3	-12	7	19
COc1ccc(C(=O)O/N=C(\C)c2cnccn2)cc1	0.5	-4	1	4	0	5
CC(=O)N(c1ccc2oc(=O)sc2c1)S(=O)(=O)c1ccccc1	0.0	-11	8	?	-8	-10
COc1ccc(Cc2nnc(NC(=O)Nc3ccc(F)cc3)s2)cc1OC	1.3	·	?	-11	7	-4
Cc1cc(-c2nnc(CCC(=O)N3CCN(Cc4cccnc4)CC3)o2)c(C)o1	1.0	-21	-4	0	15	3
